H5N1 antiviral: antiviral screen in MDCK cells, H5N1 avian flu; cytopathic effect, luminescence, 72 h; stronger effect = higher value; no value below 0 was filed and about half of the inactive calls have no number; reference of the scale not given here; inhibition, % at 50 µM; hit rate 0.07% among 96,000; AID 740; in the data active means inhibition above about 25%
Numbers without * were called inactive; i = inactive.

SMILES | H5N1 antiviral
CCOP(=O)(C#CC(C)(C)C)C1(O)CCCCC1 (configuration not stated) | 1.4
CCOc1ccc2[nH]c(=O)c(CN(Cc3ccco3)C(=O)c3cccc(F)c3)cc2c1 | 0.2
Cc1nnsc1NC(=O)OCc1ccccc1Cl | i
CC(C)C(=O)N1CCN(c2ccc(NC(=O)c3ccc(Br)o3)cc2)CC1 | i
CCOC(=O)c1c(N)nn(C(=O)C(C)C)c1-c1ccccc1 | 6.8
Cc1ccc(-n2c(Cc3cccn3C)nnc2SCC(=O)Nc2ccc3c(c2)OCO3)cc1 | 2.7
CC(C)N(Cc1ccccc1)C(=O)COC(=O)c1ccc2c(c1)OCCO2 | 0.1
Cc1ccc(S(=O)(=O)NCC(=O)OC2CCOC2=O)cc1 (configuration not stated) | 0.5
CC(C)(C)/C(O)=C(/C#N)c1nc2ccccc2[nH]1 | 0.0
Cc1cc(C)n2cc(CSc3nc4cc(Cl)ccc4o3)nc2n1 | i
CCOc1ccc(-c2nc(-c3ccccc3)no2)cc1OCC | 1.6
Cn1c(SCC(=O)N2CCCCC2)nc2c([nH]c3ccccc32)c1=O | 3.5
COC(=O)c1oc2ccc(Br)cc2c1-n1cccc1 | i
CC1CCN(c2ccc(C(=O)NCc3cccs3)cn2)CC1 | i
Cc1ccc(P(=Nc2ccccc2)(N2CCOCC2)N2CCOCC2)o1 | 0.3
O=C(CN(C(=O)CCC(=O)Nc1nccs1)c1ccccc1F)NCC1CCCO1 (configuration not stated) | 0.6
Cc1ccc(-n2c(=O)[nH]cc(C(=O)Nc3ccc4c(c3)OCCO4)c2=O)cc1C | i
CCOc1cc(CNCCN(C)C)c(Cl)cc1OCC(=O)NCCc1ccccc1 | 1.0
O=C(CN1CCN(Cc2ccc(Cl)cc2)C1=O)NCCCN1CCN(c2ccc(F)cc2)CC1 | i
Cc1nnc(NCc2ccco2)s1 | i
COC(=O)C1CCN(S(=O)(=O)Cc2ccccc2)CC1 | i
COc1ccc(NC(=S)N2CCC(C(=O)N3CCCCCC3)CC2)cc1 | 0.9
N#Cc1sc2nc(-c3cccs3)cc(-c3ccc(Cl)cc3)c2c1N | i
CCOC(=O)Cn1c(=O)oc2cc(S(=O)(=O)Nc3ccc(F)cc3)ccc21 | 0.9
COc1ccc(OC)c2[nH]c(=O)c(CCNC(=O)c3ccc(S(=O)(=O)N4CCCC4)cc3)cc12 | 1.8
Cc1ccccc1NC(=O)Cc1nnc(SCC(=O)N2CCN(c3ccccc3)CC2)n1C | 0.1
Cc1cc2c(n1-c1ccc(Cl)cc1)CC(C)(C)CC2=O | 0.1
O=c1cc(CSc2nnc(-c3cccnc3)n2-c2ccccc2F)nc2sccn12 | 1.5
c1ccc2[nH]c(NCCCN3CCOCC3)nc2c1 | 0.5
CCn1c2ccccc2c2cc(NC(=O)COc3ccc(OC)cc3)ccc21 | 1.0
COc1ccccc1OCc1ccc(C(=O)NCC2CCCO2)o1 (configuration not stated) | 0.3
Cc1nc2c(Br)cc(Br)cc2cc1O | i
Cc1n[nH]c(=O)nc1N1CCN(c2ccccc2)CC1 | 0.7
Oc1ccc2ccccc2c1C=Nc1cc(C(F)(F)F)ccc1N1CCCC1 | 16
CCOC(=O)c1sc(NC(=O)c2cccc(S(=O)(=O)N3CCN(C)CC3)c2)cc1C | i
O=c1oc2ccccc2c(Nc2cccc3ccccc23)c1[N+](=O)[O-] | i
COC(=O)Sc1nnc(-c2ccc(Br)cc2)o1 | i
CN(C)C(CNC(=O)CCCOc1ccccc1)c1ccco1 (configuration not stated) | 0.6
CCOc1ccc(NC(=O)NCC2CCN(c3ccc(OC)cc3)C2)cc1 (configuration not stated) | i
CC(C)CNC(=O)CCCc1c[nH]c2ccccc12 | i
CCOCCN1CCN(c2c3c(nc4cc(-c5ccc(F)cc5)nn24)CCC3)CC1 | i
CC(C)c1ccc(O)c(NC(=O)c2ncn[nH]2)c1 | i
NC(=O)c1ccccc1NS(=O)(=O)c1ccccc1 | i
COC(=O)CNC(=O)c1ccccc1C | i
NC1=Nc2ccccc2Oc2ccccc21 | i
CCOC(=O)c1nnn(-c2nonc2N)c1CSc1ccccn1 | 1.1
Cc1ccc(N2C(=O)[C@@H]3C(c4ccc(F)cc4)=NO[C@@H]3C2=O)cc1 | i
CCCN1Cc2cccc(C(=O)NCCCOC(C)C)c2C1=O | i
COC(=O)c1ccccc1NC(=O)CCS(=O)(=O)c1ccc(Br)s1 | i
Cn1c(SCC(=O)N(Cc2ccccc2)C(C)(C)C)nc2ccccc21 | i
COc1ccc(N2CCN(C(=O)CSc3ccccc3N)CC2)cc1 | 1.7
COc1cc(CNn2cnnc2)ccc1OCC(=O)NC1CCCCC1 | 0.6
Cn1nc(C(F)(F)F)c(/C=N/OC(=O)c2ccccc2)c1SCc1ccccc1Cl | 1.8
O=C(Nc1ccc2c(c1)OCO2)C(c1ccc(Cl)cc1)N1CCC2(CC1)OCCO2 (configuration not stated) | 0.0
Cc1ccc(C2C=C(c3ccc4c(c3)OCO4)Nc3ncnn32)cc1 (configuration not stated) | i
O=C(CCN1c2ccccc2Sc2ccccc21)OCC(=O)N1CCN(C(=O)c2ccco2)CC1 | i
O=C(COc1ccc(Br)cc1F)NC1CCN(Cc2ccccc2)CC1 | i
O=C1NC2(CCCCC2)Cc2ccccc21 | 0.4
CCC(C)NC(=O)c1ccc(COc2ccccc2Cl)cc1 (configuration not stated) | i
Cc1ccc2cc(C)c3nnc(SCC(=O)N4CCN(C(=O)c5ccco5)CC4)n3c2c1 | 0.5

Compounds listed so far that contain an NH in an aromatic ring, in the order listed:
SMILES | H5N1 antiviral
CCOc1ccc2[nH]c(=O)c(CN(Cc3ccco3)C(=O)c3cccc(F)c3)cc2c1 | 0.2
CC(C)(C)/C(O)=C(/C#N)c1nc2ccccc2[nH]1 | 0.0
Cn1c(SCC(=O)N2CCCCC2)nc2c([nH]c3ccccc32)c1=O | 3.5
Cc1ccc(-n2c(=O)[nH]cc(C(=O)Nc3ccc4c(c3)OCCO4)c2=O)cc1C | i
COc1ccc(OC)c2[nH]c(=O)c(CCNC(=O)c3ccc(S(=O)(=O)N4CCCC4)cc3)cc12 | 1.8
c1ccc2[nH]c(NCCCN3CCOCC3)nc2c1 | 0.5
Cc1n[nH]c(=O)nc1N1CCN(c2ccccc2)CC1 | 0.7
CC(C)CNC(=O)CCCc1c[nH]c2ccccc12 | i
CC(C)c1ccc(O)c(NC(=O)c2ncn[nH]2)c1 | i

New compounds follow:
SMILES | H5N1 antiviral
c1ccc2sc(SCc3ccc(-c4nnco4)cc3)nc2c1 | 0.2
COC(=O)/C=C1/S/C(=N/NC(=O)c2ccccc2)NC1=O | i
O=C1CC(c2ccc3c(c2)OCO3)CN1 (configuration not stated) | i
COc1ccc(-c2ccc(SCC(=O)N3CCCC3)nn2)cc1OC | i
COC(=O)c1ccc2c(=O)n(CCN3CCOCC3)c(=S)[nH]c2c1 | 1.1
CC(=O)Oc1ccc2nc(-c3cccs3)oc(=O)c2c1 | i
O=C(O)CCN1C(=O)NC2(CCCC2)C1=O | 1.7
COc1ccc(S(=O)(=O)N[C@@H](Cc2ccc(Cl)cc2)C(=O)N2CC[C@@]3(O)CCCC[C@H]3C2)cc1 | 0.6
CC(Cc1c[nH]c2ccccc12)NC(=O)C1CCCNC1=O (configuration not stated) | i
Cc1cc(C)nc(SC2CCOC2=O)n1 (configuration not stated) | i
Oc1ccc(/C=N/NP(=S)(c2ccccc2)c2ccccc2)c(O)c1O | 0.0
Cc1[nH]c(-c2ccc3c(c2)OCO3)nc1C(=O)O | i
COc1ccc(NC2=CC(=O)CC(C)(C)C2)cc1OC | 0.7
Cc1ccc2c(c1)-c1c(cnn1CC(=O)NC(C)CCc1ccco1)CO2 (configuration not stated) | i
CN(c1ccccc1C(=O)NCc1ccccn1)S(C)(=O)=O | 0.6
CCOC(=O)C1=C(c2ccccc2)NC(SCC(=O)Nc2cccc(C)c2)=C(C#N)C1c1ccco1 (configuration not stated) | 8.9
COc1ccc(OC)c(-c2cc(C(=O)Nc3sc4c(c3C#N)CCC(C)C4)c3ccccc3n2)c1 (configuration not stated) | i
COc1ccc(S(=O)(=O)NCc2ccc(C(=O)N3CCN(c4ccccn4)CC3)cc2)cc1 | 1.1
CCS(=O)(=O)N1CCN(C(=O)c2ccc(-c3ccccc3)cc2)CC1 | 0.3
CN(C)C(=O)N1CCCC(C(=O)NCc2ccccc2)C1 (configuration not stated) | 0.8
CCSc1nnc(NC(=O)CCNS(=O)(=O)c2cc(Br)cnc2N)s1 | 1.1
CCOC(=O)COc1c(OC)cc(Cl)cc1C1Nc2ccccc2C(=O)N1c1cccc(C)c1 (configuration not stated) | i
Cc1ccc(Cc2c(C)nc3nc(SCC(=O)NCCN4CCOCC4)nn3c2C)cc1 | 0.6
Cc1cc(C)cc(-n2nnnc2SCC(=O)Nc2nc(-c3ccc(Cl)cc3)cs2)c1 | i
CCOc1cccc(-c2nnc3sc(COc4ccc(OC)cc4)nn23)c1 | 0.1
COCCNC(=O)CN(CC1CCCO1)C(=O)CCC(=O)Nc1ccccn1 (configuration not stated) | i
O=C(O)c1ccccc1NS(=O)(=O)c1cccc(C(F)(F)F)c1 | 0.3
CCOC(=O)c1c(C#N)c(SCC(=O)Nc2ccc(OC)cc2)nc2c1CN(CC)CC2 | 0.1
COc1ccc(CNC(=O)CSc2nnnn2-c2ccccc2)cc1 | i
COc1ccc(CCNC(=O)c2nnn(-c3ccc4c(c3)OCCO4)c2N)cc1OC | i
CCOC(=O)/C(=N/Nc1ccc(C)cc1)S(=O)(=O)c1ccc(Cl)cc1 | i
CCN1CCN(Cc2cc(=O)oc3cc4c(cc23)CCC4)CC1 | 1.3
Cc1nn(C)c(C)c1S(=O)(=O)N1CCC(C(=O)NC2CCCCCC2)CC1 | i
COCCN(CCOC)c1ncc(Cl)c(C(=O)c2c(C)cc3ccccn23)n1 | 0.6
O=C(Cn1cnc2sc3c(c2c1=O)CCCC3)NCCC(=O)N1CCC2(CC1)OCCO2 | 0.0
CCN1CCN(c2cc(C)c3cc(NC(=O)c4cncc(Br)c4)ccc3n2)CC1 | i
c1ccc2c(N3CCCCC3)ncnc2c1 | 0.5
NC(=NC1CCCCC1)c1ccc([N+](=O)[O-])cc1 | 0.6
Cc1cccc(N2CCN(Cc3cc(=O)n4ccsc4n3)CC2)c1C | i
CN1C(=O)C2ON(c3ccccc3)C(c3cccs3)C2C1=O (configuration not stated) | 0.3
COc1ccc(-c2cc(C(F)(F)F)n3nc(C(=O)NCCCn4ccnc4)cc3n2)cc1 | i
C/C(=C\C(=O)c1ccc(C)o1)Nc1ccc(C(=O)O)cc1C | 0.1
Cc1ccc(S(=O)(=O)Cn2nnnc2CN(Cc2ccco2)CC2CCCO2)cc1 (configuration not stated) | 0.2
O=C(NC(=S)Nc1ccc(N2CCOCC2)c(Cl)c1)C(c1ccccc1)c1ccccc1 | 2.2
O=C(Nc1nnc(C2CC2)s1)c1ccncc1 | i
CCCC1S/C(=N/N=C/c2ccc(OC)cc2)N(Cc2ccc(OC)cc2)C1=O (configuration not stated) | i
Cc1noc(C)c1CSc1nnc2sc3ccccc3n12 | 5.4
Cc1nn2cc(-c3ccc(-c4ccccc4)cc3)nc2s1 | i
CC1=NN(Cc2ccccc2)C(=O)/C1=C\c1ccc(N(C)C)cc1 | 0.0
CNc1c([N+](=O)[O-])cnn1-c1ccc(C)cc1 | 0.2
O=C1CCCc2ccccc2N1Cc1c(Cl)cccc1Cl | 1.8
CCOc1cccc(NC(=O)CSc2nc(C)c3c(c2C#N)CCCC3)c1 | i
CCOC(=O)C1CCCN(C2CC(=O)N(c3cccc(C)c3)C2=O)C1 (configuration not stated) | 0.2
CCOc1ccccc1Nc1nnc(Cc2ccccc2Cl)c(=O)[nH]1 | i
CCC(=O)Nc1ccc(C(=O)CSc2nnc(-c3ccc(O)cc3)n2CC2CCCO2)cc1OC (configuration not stated) | 0.9
CC1CCc2nc(NC(=O)CSc3nc4ccccc4o3)sc2C1 (configuration not stated) | 2.2
Cc1[nH]c2c(Cl)cccc2c(=O)c1CN1CCCC1 | 1.1
Nn1c(SCc2nc3ccccn3c2Br)nnc1-c1cccnc1 | 1.4
COc1ccccc1N(C)S(=O)(=O)c1ccc(C(=O)NC2=NCCS2)cc1 | i
COc1ccc(NS(=O)(=O)c2cccs2)c(OC)c1 | i

(next part)
SMILES | H5N1 antiviral
Cc1ccc(C(=O)CSC2=C(C#N)C(c3ccco3)C3=C(CCCC3=O)N2)cc1 (configuration not stated) | 0.4
Cn1c(=O)n(C/C=C/c2ccccc2)c(=O)c2c1nc1n2CCCN1Cc1ccccc1 | 3.8
O=C(CCc1nc(-c2ccccc2)no1)N1CCCC1 | 0.9
O=c1c2ccsc2ncn1Cc1ccc(Cl)cc1 | i
COc1cc(/C=N/NC(=O)c2cccnc2)ccc1OC(=O)c1ccco1 | 0.8
CCn1[nH]c(=O)c(=Nc2c(C)n(C)n(-c3ccccc3)c2=O)cc1-c1ccc(Cl)cc1 | i
O=C1CCCN1CCCNCC(=O)N1c2ccccc2Sc2ccccc21 | 0.1
O=c1c2c3c(sc2ncn1/N=C/c1ccc(Br)o1)CCCC3 | i
NC(=O)C1CCN(C(=O)c2ccc(NC3=NC4CS(=O)(=O)CC4S3)cc2)CC1 (configuration not stated) | i
CCN(CC)c1ccc(CN(C)CCc2ccc(OC)c(OC)c2)cc1 | i
Cc1cccnc1Nc1nc(-c2ccc(O)cc2O)cs1 | i
Cc1ccc(C(=O)c2sc3nsc(C)c3c2N)cc1 | 0.1
Cc1ccc(S(=O)(=O)O/N=C2/CCCc3occc32)cc1 | 0.5
Nn1c(Nc2ccccc2)nc2sc3c(c2c1=O)CCC3 | i
CCn1ncc(Br)c1C(=O)Nc1cc(C(=O)OC)ccc1C(=O)OC | 0.2
CSc1ccccc1NC(=O)c1cnccn1 | 0.2

Arranged by SMILES length (high to low): part of the list above.
SMILES | H5N1 antiviral
Cn1c(=O)n(C/C=C/c2ccccc2)c(=O)c2c1nc1n2CCCN1Cc1ccccc1 | 3.8
COc1cc(/C=N/NC(=O)c2cccnc2)ccc1OC(=O)c1ccco1 | 0.8
CCn1ncc(Br)c1C(=O)Nc1cc(C(=O)OC)ccc1C(=O)OC | 0.2
Cc1ccc(C(=O)c2sc3nsc(C)c3c2N)cc1 | 0.1
O=c1c2ccsc2ncn1Cc1ccc(Cl)cc1 | i
CSc1ccccc1NC(=O)c1cnccn1 | 0.2

An excerpt (hit frequency here may not be typical).
